Compound activity as filed in PubChem.
VDR inh – Inhibitors of the vitamin D receptor (VDR): qHTS | VDR-SRC2-3 peptide fluorescence polarization, 2 h | Potency, µM, for the others: max response, negative = inhibition, actives largely listed as inhibitors | actives 0.93% (n = 400,000) | AID 504847, 2011; active = well fitted inhibition curve with a large enough effect; inconclusive = small, poorly fitted or top-dose-only effect, or another doubt; inactive = no such curve, though single readings can be large or run the other way; also: series mostly up to about 120 µM
Target sequence (P11473 whole entry, looked up): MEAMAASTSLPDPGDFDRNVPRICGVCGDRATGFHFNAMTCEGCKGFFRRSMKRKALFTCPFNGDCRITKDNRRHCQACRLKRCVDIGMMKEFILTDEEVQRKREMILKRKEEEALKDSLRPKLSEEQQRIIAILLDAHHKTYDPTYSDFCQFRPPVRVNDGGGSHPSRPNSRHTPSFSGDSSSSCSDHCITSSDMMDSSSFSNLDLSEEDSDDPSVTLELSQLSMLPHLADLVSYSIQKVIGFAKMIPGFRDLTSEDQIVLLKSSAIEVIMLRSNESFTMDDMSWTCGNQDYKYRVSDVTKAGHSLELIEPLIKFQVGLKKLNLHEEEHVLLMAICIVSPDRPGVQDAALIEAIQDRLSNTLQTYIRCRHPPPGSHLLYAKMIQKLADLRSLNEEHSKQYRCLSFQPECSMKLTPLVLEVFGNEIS
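Compounds are added to VDR with labelled SRC2-3 coactivator peptide and held 2 h at room temperature. Inhibition of the VDR–peptide interaction is then read as a change in fluorescence polarization.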
An asterisk follows results filed as active; ? = inconclusive; & = joins results of further samples. % is scaled to controls: 0 for no effect and ±100 for the full control effect; potency is read from the fitted curve at half-maximal effect. The list is partial. The share of hits here may be higher or lower than overall.

#	smiles	VDR inh
1	COc1ccccc1NC(=S)Nc1ccccn1	-13.8%
2	CC(C)Sc1nc(N)c2c3c(sc2n1)CN(C)CC3	11.0%
3	COc1ccc(OCC(=O)NC(=S)Nc2ccc(N3CCOCC3)c(Cl)c2)cc1	-25.5%
4	CCC1CCCCN1C(=O)Cn1nc([N+](=O)[O-])c(Cl)c1C (configuration not stated)	-17.0%
5	Cc1ncc(CO)c2c1Oc1nc(-c3ccc(Cl)cc3)nc(SCC(=O)N3CCCCC3)c1C2	-9.0%
6	Cc1cccc(Nc2nc(-c3ccc(F)c(C)c3)cs2)n1	-5.4%
7	CCOC(=O)C1=C(C)NC(C)=C(C(=O)OCC)C1C(=O)OCC(=O)NCCc1ccc(S(N)(=O)=O)cc1	-18.7%
8	Cn1nc(C(F)(F)F)cc1C(=O)Nc1ccc(-c2ccno2)cc1	-3.5%

#	smiles	VDR inh
9	CN(/C=C/C(=C\C=[N+](C)c1ccccc1)OCCCS(=O)(=O)[O-])c1ccccc1	-10.9%
10	Cc1ccc(C(=O)C2CCNCC2)cc1	-9.5%
11	CC1CN(c2ccc(Cl)nn2)CC(C)O1 (configuration not stated)	-16.2%
12	O=C(c1ccccc1)C(C(=O)N1CCCCC1)n1ccccc1=O (configuration not stated)	-18.6%
13	CC1CSC(N(C(=O)c2ccc(S(C)(=O)=O)cc2)c2ccc(Cl)cc2)=N1 (configuration not stated)	-17.9%
14	CCc1nnc(NC(=O)CSc2nnc(-c3ccoc3C)n2-c2ccccc2)s1	-0.2%
15	CCN(CC)c1cc2c(cc1F)c(=O)c(S(=O)(=O)c1ccc(OC)cc1)cn2Cc1ccccc1	14.0%
16	CCCCOc1ccc(SCCCN2CCOCC2)cc1	-14.6%

#	smiles	VDR inh
17	CCSCc1nc2ccccn2c1Br	-10.7%
18	CC(=O)N1CCN(c2ccc(NCc3ccc(C)cc3)cc2)CC1	?
19	CCOC(=O)N1CCN(C(=O)c2ccc3nc(SCc4ccc(F)cc4)n(C)c3c2)CC1	-6.1%
20	Cc1[nH]ccc(=O)c1Oc1ncc(C(F)(F)F)cc1Cl	-15.9%
21	COc1ccccc1NC(=O)C1=C(C)Nc2nc(SCc3ccccc3F)nn2C1c1cccnc1 (configuration not stated)	-25.9%
22	N#Cc1ccccc1COC(=O)c1ccc2c(c1)OCCO2	26.8%
23	Cc1cccc(C2=NN(c3ccccc3)[C@@H](C(=O)N3CCOC3=O)[C@@H]2c2ccc([N+](=O)[O-])cc2)c1	-3.5%&0.8%
24	Oc1ccccc1C(Nc1nccs1)c1ccc2cccnc2c1O (configuration not stated)	6.7%

#	smiles	VDR inh
25	O=C(Cn1nc(-c2ccccc2)c2ccccc2c1=O)NCC1CCCO1 (configuration not stated)	9.7%
26	Oc1c(CN2CCOCC2)cc(CN2CCOCC2)c(O)c1O	20µM*
27	Cc1ccccc1NC(=O)CSc1nc2c(c(=O)n(C)c(=O)n2C)n1C	-11.2%
28	COc1ccc2nc(NC(=O)CSc3nccc(C)n3)sc2c1	4.6%
29	Cc1ccc(C)c(NC(=O)CSc2n[nH]c(-c3ccccn3)n2)c1	7.6%
30	CCOc1cccc(C(=O)N(Cc2ccc(C)o2)C2CCS(=O)(=O)C2)c1 (configuration not stated)	4.1%
31	Cc1cc(Nc2ccc(F)cc2Cl)n2ncnc2n1	10.6%
32	CCOC(=O)c1cnc(SCc2nc(N)nc(Nc3ccc(C)cc3)n2)nc1N	-18.0%

3 compounds drawn at random from the list so far, as already listed:
#	smiles	VDR inh
28	COc1ccc2nc(NC(=O)CSc3nccc(C)n3)sc2c1	4.6%
32	CCOC(=O)c1cnc(SCc2nc(N)nc(Nc3ccc(C)cc3)n2)nc1N	-18.0%
26	Oc1c(CN2CCOCC2)cc(CN2CCOCC2)c(O)c1O	20µM*

The results go on.
#	smiles	VDR inh
33	O=C(NCCC1=CCCCC1)c1cc(COc2c(F)cccc2F)on1	2.0%
34	CSc1ccc(S(=O)(=O)NCC(=O)OCC(=O)N(C)CC(=O)Nc2ccc(F)cc2)cc1[N+](=O)[O-]	10.4%
35	CCCn1c(=N)c(C(=O)NC(C)c2ccccc2)cc2c(=O)n3ccccc3nc21 (configuration not stated)	-0.9%
36	CCCc1cc(=O)n2[nH]c(SCc3ccccc3)nc2n1	1.1%
37	O=C(NCc1n[nH]c(=S)n1-c1ccccc1Cl)c1ccc(S(=O)(=O)N2CCCCC2)cc1	8.7%
38	Cc1cc(C(=O)COC(=O)c2cccs2)c(C)n1-c1c(C)n(C)n(-c2ccccc2)c1=O	-9.5%
39	C=CCN(C(=O)c1cccc(S(=O)(=O)N2CCN(C)CC2)c1)c1nc(-c2ccccc2)cs1	20.7%
40	CN(Cc1ccc(C(C)(C)C)cc1)C(=O)c1ccc2c(=O)n3c(nc2c1)CCC3	-1.2%

#	smiles	VDR inh
41	CC(C)OP(=O)(OC(C)C)C(Nc1ccccc1)c1cccc2c1OCO2 (configuration not stated)	-8.9%
42	O=Nc1c2cc3ccccc3[nH]c-2c2ccccc12	-2.0%
43	O=C(Nc1ccccc1)c1ccc(NCc2cccnc2)c(S(=O)(=O)N2CCOCC2)c1	-2.3%
44	O=C(COC(=O)c1cccc(S(=O)(=O)N2CCCCC2)c1)NC1CCCc2ccccc21 (configuration not stated)	-1.1%
45	O=C(CCN1CCN(C/C=C/c2ccccc2)CC1)Nc1cccc(F)c1	-11.8%
46	COc1cc(-c2cc(=O)c3c(O)c(OC)c(OC)c(O)c3o2)ccc1O	-9.4%
47	O=C(OCC(=O)N1CCCC1)c1ccc(O)cc1	7.8%
48	Cc1ccc(C)c(Cn2cnc3c(cnn3C(C)(C)C)c2=O)c1	-1.1%

#	smiles	VDR inh
49	COc1ccc(C(=O)Nc2cccc(-c3ccc4nncn4n3)c2)cc1OC	4.2%
50	Nc1nnc(SCc2ccc3c(c2)OCO3)s1	-5.0%
51	Cn1nc(C(=O)N2CCN(c3ccccn3)CC2)c2ccccc2c1=O	1.9%
52	CCc1ccc(NC(=O)c2ccc(Cn3nc(N4CCN(c5ccccc5)CC4)ccc3=O)o2)cc1	10.5%
53	CCOC(=O)C1(Cc2ccc(OC)cc2)CCN(C(=O)c2sc(C)nc2C)CC1	20.3%
54	Cc1ccc(O)c(C(=O)c2cnn(-c3ccc(S(=O)(=O)N4CCOCC4)cc3[N+](=O)[O-])c2)c1	-15.3%
55	COc1cc(CCC(=O)NNC(=O)c2cccc(Cl)c2)cc(OC)c1OC	-5.9%
56	O=C(CCN1C(=O)/C(=C/c2ccccc2Cl)SC1=S)NCCCN1CCOCC1	15.8%

#	smiles	VDR inh
57	Cc1cccc(OCc2ccc(C(=O)N3CCOCC3)o2)c1	-0.8%
58	CC(O)c1nc2ccc(Cc3ccc4nc(C(C)O)[nH]c4c3)cc2[nH]1 (configuration not stated)	19.3%
59	COc1cc(NC(=O)COc2c(C)cc(C)cc2[N+](=O)[O-])c(OC)cc1Cl	2.5%
60	CC(C)(C)c1ccc(CN2N=Nc3ccccc3S2(=O)=O)cc1	50.1µM*
61	COCCOC(=O)c1[nH]c2c(c1C)C(=O)CC(c1ccc(N(C)C)cc1)C2 (configuration not stated)	5.6%
62	NC(=O)c1ccnc2c(O)cccc12	-13.5%
63	C/C(=N\NC(=O)c1ccc(F)cc1)c1cccc(NC(=O)c2cccc(F)c2)c1	6.2%
64	Cc1cc(NC(=O)COC(=O)COc2ccc3c(c2)CCC3)no1	-16.6%

#	smiles	VDR inh
65	O=C(c1cc2cc([N+](=O)[O-])ccc2oc1=O)n1cccn1	-1.1%
66	CCOC(=O)C1CCCN(S(=O)(=O)c2ccc(F)c(C(=O)Nc3ccc(F)c(F)c3)c2)C1 (configuration not stated)	-0.7%&-10.8%
67	Nc1nc(-c2ccccc2)nc(-c2ccccc2O)n1	-1.1%
68	CCOc1cc(/C=N/NC(=O)CN(CCc2ccccc2)S(=O)(=O)c2ccc(NC(C)=O)cc2)ccc1O	-3.3%
69	COC(=O)C(CCSC)NC(=O)C(NC(=O)C1CCC(C)CC1)C(C)C (configuration not stated)	17.2%
70	COc1ccccc1N1CC(C(=O)Nc2ccc(S(=O)(=O)N3CCCC3)cc2)CC1=O (configuration not stated)	2.5%
71	COc1ccc(OC)c(NC(=O)CCNS(=O)(=O)c2ccc3[nH]c(=O)oc3c2)c1	0.8%
72	Cc1ccc(S(=O)(=O)N(CC(=O)NCc2ccco2)C2CCCCC2)cc1	7.5%

#	smiles	VDR inh
73	Oc1ccc2ccccc2c1CNc1ccc2ccccc2c1	12.9%
74	Cc1nc2cc(-c3cccc(F)c3)nn2c(C)c1CCC(=O)N1CCN(c2ccccn2)CC1	12.4%
75	COC(=O)/C=C/c1ccc2c(c1)OCO2	-11.5%
76	Cc1cc2oc(=O)cc(CN(C)Cc3ccccc3F)c2cc1Cl	24.5%
77	COc1ccc(NC(=O)c2cc(-c3ccncc3)nc3ccc(Br)cc23)cc1OC	4.0%
78	COc1ccc(Cn2c(SCc3ccc(C(=O)NC4CCCCC4)cc3)nc3ccncc32)cc1	-6.2%
79	CC(NC(=O)COC(=O)Cc1ccsc1)c1ccccc1 (configuration not stated)	9.2%
80	O=c1oc(-c2ccco2)nc2c1cnn2-c1ccccc1	5.4%

#	smiles	VDR inh
81	O=C(C[n+]1cc(-c2ccc(Cl)cc2)n2c1CCC2)N1c2ccccc2Sc2ccccc21	0.8%
82	COC(=O)C(Cc1ccc(O)cc1)NC(=O)C(CC(=O)OC(C)(C)C)NC(=O)OC(C)(C)C (configuration not stated)	-2.7%
83	Cc1ccc(CNC(=O)CNC(=O)c2ccc(C(C)(C)C)cc2)n1C	-7.0%
84	Cc1cnc(=O)[nH]c1SCc1cccc(C(F)(F)F)c1	-11.1%
85	CSc1nncc(/C(C)=N\Nc2ccccc2)n1	0.0%
86	O=c1c2c([nH]c3ccccc13)CCC2	-24.7%
87	COc1cc(OC)cc(-n2nnnc2SCC(=O)Nc2nc3c(s2)CCCC3)c1	18.7%
88	C=CCn1c(C)cc(C(=O)CSc2n[nH]c(N)n2)c1C	-10.4%

Among those listed so far, these contain bromine:
#	smiles	VDR inh
17	CCSCc1nc2ccccn2c1Br	-10.7%
77	COc1ccc(NC(=O)c2cc(-c3ccncc3)nc3ccc(Br)cc23)cc1OC	4.0%

(continued)
#	smiles	VDR inh
89	C/C(=N\NC(=O)CSCc1ccccc1Cl)c1cc(O)ccc1O	-4.5%
90	COc1ccc2cc(C(=O)NCc3ccccc3)c(=Nc3ccc(C(=O)O)cc3)oc2c1	-7.4%
91	C[C@]12c3[nH]c4ccc(Cl)cc4c3CCN1C(=O)[C@@H](CC(=O)NCc1cccc(C(F)(F)F)c1)C[C@@H]2C(=O)N1CCCCC1	-21.6%
92	Cc1ccc(NC(=O)c2ccc(-c3nn(C)c(=O)c4ccccc34)cc2)cc1	2.8%
93	CCCNC(=O)c1ccc2c(c1)ncn2-c1ccccc1OC	-2.0%
94	Cc1nnc(SCC(=O)NC2CC2)n1CCc1ccccc1	4.3%
95	CCOc1cc(NCc2ccccc2)c2ncn(C(C)C)c2c1	-2.5%
96	[N-]=[N+]=Nc1ccc(C(=O)CSC[C@H](NC(=O)CC[C@H](N)C(=O)O)C(=O)NCC(=O)O)cc1	44.7µM*

#	smiles	VDR inh
97	COc1ccc(C)cc1NC(=O)CSc1nnc2ccc(-c3cccnc3)nn12	-4.4%
98	COc1cccc2c1Oc1ncccc1N(c1ccc(C(=O)NCc3ccccc3Cl)s1)C2	-9.2%
99	Cn1c(CNC(=O)CCNC(=O)c2cccc(Cl)c2)cc(=O)n(C)c1=O	-4.4%
100	COCCN1CCN(C(=O)C2CCC(=O)N(CCc3cccc(F)c3)C2)CC1 (configuration not stated)	13.1%
101	Cc1ccc(S(=O)(=O)NCc2ccc(C(=O)NCCc3cccc(C)c3)cc2)cc1	6.9%
102	COc1ccccc1OCC(O)CO (configuration not stated)	-10.5%&-20.5%
103	CC(=O)c1cccc(S(=O)(=O)N2CCn3cccc3C2C)c1 (configuration not stated)	-21.6%
104	O=C(COC(=O)C1CCC1)Nc1ccc(Oc2ccccc2)cc1	-8.4%

#	smiles	VDR inh
105	COc1cc2c(cc1OC)C(C)N(CC(=O)Nc1ccc(C)c(S(=O)(=O)N3CCOCC3)c1)CC2 (configuration not stated)	-6.7%
106	O=C(c1cccs1)c1cn(CCOc2ccccc2Cl)c2ccccc12	-5.2%
107	COc1cc(OC)cc(C(=O)NC(=S)Nc2ccc3[nH]c(=O)[nH]c3c2)c1	-10.3%
108	CCCCOc1c(C(=O)Nc2ccccc2)nnn1-c1ccccc1	1.6%
109	Cc1nn(-c2ccccc2)c(C)c1-c1nnc(C(F)(F)F)o1	9.2%
110	Cc1nc(-c2ccc(NC(=O)C(C)(C)C)cc2)c(-c2ccccc2)o1	-3.4%
111	CC1(C)CC(=O)C2=C(C1)Nc1cc3c(cc1C2c1ccc2c(c1)OCO2)OCO3 (configuration not stated)	-7.8%
112	Cc1cc(C)n(-c2nc(C(=O)O)cs2)n1	4.2%

#	smiles	VDR inh
113	C=CCOC(=O)C1C(=O)CC(C)(O)C(C(=O)OCC=C)C1c1ccc(N(C)C)cc1 (configuration not stated)	7.2%
114	COc1ccccc1/C=C/C(=O)c1ccccc1	79.4µM*
115	C[C@@H]1C[C@@H]([C@@H](C)CC2CC(=O)NC(=O)C2)C(=O)[C@@H](C)C1	0.7%
116	Cc1nnc(SCC(=O)N(Cc2ccccc2)C(C)(C)C)[nH]c1=O	-7.1%
117	Cc1ccc2c(c1)[C@@H]1[C@H](CO2)[C@H](c2ccccc2)[C@]2(C)C(=O)N[C@H](C)C(=O)N12	-6.3%
118	CN(c1ccccc1)S(=O)(=O)c1ccc(C(=O)NCc2ccccc2F)cc1	-21.4%
119	Cc1ccc(NC(=O)CN2C(=O)C(c3ccc(F)cc3)=NC23CCCCC3)c(C)c1	6.5%
120	Cc1ccc(Sc2ncccc2COC(=O)Nc2c(C)cccc2C)cc1	26.0%
121	ClCc1nnc(-c2cc3c(s2)CCCC3)o1	7.6%
122	COc1ccccc1NC(=O)/C=C/C(=O)O	4.4%
123	CN(C)c1ccc(C(c2nnnn2CCOC(=O)Nc2ccc(Cl)cc2)N2CCOCC2)cc1 (configuration not stated)	?
